# Bioassay records as filed in PubChem BioAssay.
# KCNQ2 enhance = potentiators of rat KCNQ2 potassium channel | Potassium voltage-gated channel subfamily KQT member 2 (Rattus norvegicus), O88943 | CHO-K1 KCNQ2, FluxOR thallium flux fluorescence; active compounds read high | B-score at 10 µM | actives 0.54% (n = 310,000) | AID 2239, 2010;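 active = fluorescence ratio B-score at least 3 SD of library B-scores, with initial fluorescence B-score within 3 SD, cut at about 5.3 in these data; same plate scores as AID 2156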;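 note: B-score of peak minus minimum over baseline fluorescence ratio after K+ and Tl+ stimulus; positive B-score means potentiation of KCNQ2 with more thallium influx and brighter signal; only the inactives scoring about 0 or higher are listed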
# Target sequence (O88943 whole entry, looked up): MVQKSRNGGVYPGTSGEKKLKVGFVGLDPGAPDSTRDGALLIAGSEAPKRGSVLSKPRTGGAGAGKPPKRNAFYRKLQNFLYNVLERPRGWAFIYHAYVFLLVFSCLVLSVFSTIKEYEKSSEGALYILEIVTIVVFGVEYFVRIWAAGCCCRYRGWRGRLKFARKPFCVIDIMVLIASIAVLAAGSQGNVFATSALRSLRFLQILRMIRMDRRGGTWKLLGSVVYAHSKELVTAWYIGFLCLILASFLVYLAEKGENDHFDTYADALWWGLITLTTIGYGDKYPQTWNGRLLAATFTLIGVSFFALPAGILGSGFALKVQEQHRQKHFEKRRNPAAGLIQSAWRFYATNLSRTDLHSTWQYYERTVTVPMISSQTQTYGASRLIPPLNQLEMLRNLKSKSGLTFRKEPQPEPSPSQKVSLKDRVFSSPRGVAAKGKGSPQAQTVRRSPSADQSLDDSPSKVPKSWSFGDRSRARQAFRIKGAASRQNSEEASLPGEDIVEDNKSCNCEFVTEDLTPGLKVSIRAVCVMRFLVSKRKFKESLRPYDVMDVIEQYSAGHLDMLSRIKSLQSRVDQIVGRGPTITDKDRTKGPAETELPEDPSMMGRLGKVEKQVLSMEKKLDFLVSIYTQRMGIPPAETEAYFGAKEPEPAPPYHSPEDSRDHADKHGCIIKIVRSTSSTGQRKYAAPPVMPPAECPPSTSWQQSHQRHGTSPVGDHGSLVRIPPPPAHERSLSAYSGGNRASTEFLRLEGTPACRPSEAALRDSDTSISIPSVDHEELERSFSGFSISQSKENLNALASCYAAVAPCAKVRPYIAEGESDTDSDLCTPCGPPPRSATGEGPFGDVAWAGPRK
# KCNQ2 enhance baseline = further read-out of KCNQ2 enhance, marked with its call; B-score; compound at 10 µM; measured here: initial fluorescence intensity artifact check;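 brightness before thallium and not channel activity; 0 = typical well and far values either way flag optical interference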
# * hit, by the source's call.
SMILES	KCNQ2 enhance	KCNQ2 enhance baseline
O=C(COC(=O)c1cccs1)Nc1ccccc1C(F)(F)F	0.03	0.3
COc1ccc(/C=N/NC(=O)c2cccc(NC(=O)c3ccccc3Cl)c2)c(OC)c1	0.65	0.64
Cc1ccc(C(=O)C2=C(O)C(=O)N(c3ncccn3)C2c2ccc(F)cc2)o1 (stereo unspecified)	1.2	0.14
O=C(Cn1c2[n+](c3ccc(C(F)(F)F)cc31)CCCCC2)c1ccc2c(c1)OCCO2	0.19	0.03
Cc1ccc2c(NC(=O)c3ccco3)cccc2n1	0.09	2.6
CC(C)c1cccc(C(C)C)c1NC(=O)CN1C(=O)NC2(CCCC2)C1=O	0.54	-0.58
CCNC(=O)NC(=O)C(C)Sc1nc2ccccc2c(=O)n1-c1cccnc1 (stereo unspecified)	1.4	1.2
O=C(COC(=O)C1CC1)Nc1ccc(N=Nc2ccccc2)cc1	0.46	-1.8
CCSc1nnc(NC(=O)CCC2CCCCC2)s1	1.2	-0.04
CCOC(=O)C1CCN(C(=O)Cn2cc3c(n2)CCC(C)C3)CC1 (stereo unspecified)	0.18	-0.2
CCc1ccc(N(CC(=O)NC(C)C)C(=O)CCC(=O)Nc2nccs2)cc1	0.02	0.97
Nc1ccc(-c2cnc[nH]2)cc1[N+](=O)[O-]	2.7	-0.99
COc1ccc(N(CC(=O)NC2CCCCC2)C(=O)CNC(=O)c2ccco2)cc1	1.3	0.3
Cc1cc(S(=O)(=O)NCCN2CCOCC2)c(C)s1	0.15	0.02
CCN(CC)S(=O)(=O)c1ccc(NS(=O)(=O)c2ccc(C)c(C)c2)cc1	0.03	-0.1
CC(C)Cc1ccc(-c2cc(=O)[nH][nH]2)cc1	0.15	-0.17
Cc1ccc(N=C(NO)c2cnccc2C(F)(F)F)c(C)c1	7.4*	-0.99*
O=C(NCc1ccccc1Cl)C1CCN(S(=O)(=O)N2CCCC2)CC1	1.2	1.1
Cn1c(N)c(C(=O)CSc2ccc3c(c2)OCCO3)c(=O)n(C)c1=O	2.4	-0.03
COc1ccc(/C=C/C(=O)NC(=S)Nc2cc3oc4ccccc4c3cc2OC)cc1	0.08	0.06
COc1ccc(Cn2c(-c3ccccc3)nc3c(c(=O)c4ccccc4n3C)c2=O)cc1	0.71	0.68
CCOC(=O)N1CCN(Cc2ccc(F)cc2F)CC1	0.37	-1.2
Cc1ccc(Nc2cc(C)nc3c(C)cccc23)cc1	1.4	-2.3
CC(=O)Nc1ccc(S(=O)(=O)NNC(=O)c2cccc(Br)c2)cc1	0.24	0.62
CCOC(=O)N1CCN(c2nc3c(c(=O)[nH]c(=O)n3C)n2Cc2ccccc2Cl)CC1	0.34	0.56
COC(=O)Cc1cc(=O)n2c(nc3ccccc32)[nH]1	0.23	0.17
COc1cccc(CNC(=O)CCNC(=O)c2ccco2)c1	0.03	0.01
CC1(C)O[C@@H]2CC3C4C[C@H](F)C5=CC(=O)C=CC5(C)C4C(O)CC3(C)[C@]2(C(=O)CO)O1 (stereo partly specified)	0.21	1.3
CC(=O)NC(Cc1ccccc1F)C(=O)NC1CCN(C(=O)c2cnccn2)CC1 (stereo unspecified)	0.08	-0.98
CS(=O)(=O)N1CCN(c2cnn(-c3ccccc3)c(=O)c2Cl)CC1	0.31	0.31
O=C1C2C3C=CC(C3)C2C(=O)N1c1ccc(S(=O)(=O)Nc2nccs2)cc1 (stereo unspecified)	0.24	-1.5
O=C(Cc1ccccc1)NCC(=O)Nc1cccc(Cl)c1	0.68	-0.35
COc1ccc(OCC(=O)NCC(c2cccs2)N2CCOCC2)cc1 (stereo unspecified)	1.1	-1.9
COc1ccccc1N1CC(C(=O)Nc2nnc(SCC(=O)NCC3CCCO3)s2)CC1=O (stereo unspecified)	0.33	-0.57
Cc1sc(NC(=O)c2ccccc2)c(C#N)c1-c1ccccc1	0.12	0.01
O=C(CSc1ccccn1)N1CCCC(Nc2ccc(F)c(F)c2)C1 (stereo unspecified)	0.29	-1.6
Cc1c(Cl)c(C(F)(F)F)nn1CC(=O)NN	0.53	-2.1
CCC(C)c1ccc(-n2c(=O)c3ccccc3n3c(=S)[nH]nc23)cc1 (stereo unspecified)	1.7	1.6
CCCN1CCN(C(=O)c2cc(COc3ccc(F)c(F)c3)on2)CC1	0.05	-2.4
CCOc1cc(/C=N/NC(=O)c2cccs2)ccc1OC(=O)N1CCOCC1	1	-0.09
COc1ccc(CCNC(=O)c2ccc(NS(=O)(=O)c3c(C)noc3C)cc2)cc1OC	0.56	-0.03
COCc1cc(C)n(CC(=O)NC(C)c2ccccc2)c(=O)c1C#N (stereo unspecified)	0.08	1.4
COc1ccc(Cn2nnnc2CN2CCC(O)(c3ccc(F)cc3)CC2)cc1	0.98	0.72
CCN(Cc1ccccc1)S(=O)(=O)c1ccc(C(=O)Nc2nnc(-c3ccccc3OC)o2)cc1	0.66	-0.64
CC(=O)c1ccc2c(c1)OCCOCCOc1ccccc1OCCOCCO2	0.06	-0.3
Cc1ccccc1-n1c(=O)n(Cc2ccco2)c(=O)c2[nH]cnc21	0.76	0.65
CCc1sc(-c2c(C#N)c(N)nc3c2CCCCCC3)cc1[N+](=O)[O-]	2.2	0.78
O=C(O)CSc1nc(-c2ccccc2)c(-c2ccccc2)[nH]1	0.55	0.97
Cc1cc(C)n2nc(C(=O)OCC(=O)N(CC(C)C)CC(C)C)nc2n1	2	-1.3
C(=N\N1CCN(Cc2ccccc2)CC1)/c1cccs1	0.34	0.02
Cc1ccccc1S(=O)(=O)N1CCN(C)CC1	1.3	0.56
CCC(CC)C(=O)Nc1cc(C)cc(C)c1	0.83	-0.38
Cc1ccc(-c2nnn(CC(=O)N(CCO)C(C(=O)NC3CCCCC3)c3ccncc3)n2)o1 (stereo unspecified)	0.26	-1
CCOC(=O)C(C(=O)Nc1ccccn1)C1CCCCC1 (stereo unspecified)	0.9	-0.2
COc1cccc(/C=N/NC(=O)CCc2c(C)n[nH]c2C)c1O	1.8	0.38
CCCCc1nnc(SCC(=O)NC2CCCCC2)n1C	1.1	-0.63
COc1ccc(CNC(=O)C(c2ccncc2)N(C(=O)Cc2cccs2)c2ccccc2C)cc1 (stereo unspecified)	1.7	-2
C(=C\c1ccccc1)/C=N/Nc1ccc2nncn2n1	0.67	2
CN(C)Cc1ccc(-c2nc3cccc4c3n2CCNC4=O)cc1	0.82	-0.23
O=c1c2c(-c3ccccc3)csc2ncn1/N=C/c1ccc(O)c([N+](=O)[O-])c1	0.19	0.96

# Entries of single compounds as entered above. Order of screens: KCNQ2 enhance	KCNQ2 enhance baseline
# `O=C(O)CSc1nc(-c2ccccc2)c(-c2ccccc2)[nH]1` as listed: 0.55	0.97
# `CN(C)Cc1ccc(-c2nc3cccc4c3n2CCNC4=O)cc1` as listed: 0.82	-0.23
# `CCOC(=O)C(C(=O)Nc1ccccn1)C1CCCCC1` (stereo unspecified) as listed: 0.9	-0.2
# `CCC(CC)C(=O)Nc1cc(C)cc(C)c1` as listed: 0.83	-0.38

# Continuation.
SMILES	KCNQ2 enhance	KCNQ2 enhance baseline
O=C(CN(Cc1ccccc1)C(=O)CNS(=O)(=O)c1ccccc1)NCc1ccco1	0.87	1.1
COc1ccc(-c2csc(Nc3cccnc3)n2)cc1	0.07	-0.72
COc1ccc(OC)c(NC(=O)CCCN2C(=S)NC(C)(C)CC2C)c1 (stereo unspecified)	2	-1.7
Cn1cc([N+](=O)[O-])c(C(=O)N2CCN(Cc3ccc4c(c3)OCO4)CC2)n1	1.3	-0.72
CCc1ccccc1Nc1nc(N)nc(COC(=O)CCS(=O)(=O)c2ccccc2)n1	1.1	-1.1
OCC1(Cc2ccccc2)CCN(Cc2ccccn2)CC1	0.31	0.8
CN(c1ccc(C(=O)Nc2ccccc2C(F)(F)F)cc1)S(C)(=O)=O	1.5	0.83
COc1ccc(N=Cc2nc(-c3ccccc3)oc2OC(C)=O)cc1	0.16	0.31
Cc1ccc(Cn2ncc3c(NCCCN(C)C)ncnc32)cc1	1	-0.97
Cc1cc(=O)n2nc(N3CCC(C(=O)NCc4cccc(Cl)c4)CC3)sc2n1	0.81	-0.08
COc1ccc(N(C(=O)/C=C/c2ccccc2)C2=CC3CCC(C2)N3C)cc1 (stereo unspecified)	0.69	0.89
CC1(C)CC(=O)c2c(nn(-c3ccccc3)c2N)C1	0.96	0.5
CCCOc1ccc2cc(C(=O)NCc3ccccc3)c(=O)oc2c1	0.58	0.14
COC(=O)c1ccc(-n2cnc(Cl)n2)c(F)c1	0.02	-2
Cc1ccc(C)c(N2CCN(C(=O)c3ccc4nc(N5CCOCC5)sc4c3)CC2)c1	0.25	0.78

# 3 entries out of the list above, ordered by their value in KCNQ2 enhance baseline, ascending.
SMILES	KCNQ2 enhance	KCNQ2 enhance baseline
CCCCc1nnc(SCC(=O)NC2CCCCC2)n1C	1.1	-0.63
O=C(Cc1ccccc1)NCC(=O)Nc1cccc(Cl)c1	0.68	-0.35
C(=N\N1CCN(Cc2ccccc2)CC1)/c1cccs1	0.34	0.02

# Next section:
SMILES	KCNQ2 enhance	KCNQ2 enhance baseline
Cc1nc2cc3c(cc2s1)OCO3	3.5	-0.14
O=C(Nc1ccc(F)cc1)C1CC(=O)n2cnnc2N1 (stereo unspecified)	0.15	-1.8
CC1CCN(C(=O)CSc2nnc(CNC(=O)c3ccc(F)cc3)o2)CC1	0.05	2.1
CCSc1ccc(C(=O)NCC(=O)O)cc1	1.6	3.2
COc1ccc(C(=O)Nc2nnc(C(F)(F)F)s2)cc1	1.3	-1.1
Cc1cc(C(=O)NCc2cccs2)cs1	0.22	0.68
COCCNC(=O)CSc1n[nH]c(=O)n1CCc1ccccc1	0.26	-0.27
O/N=C/c1ccnc(SCc2ccccc2)n1	0.42	0.1
CCCC(=O)N1CCC(O)(c2cccc(F)c2)CC1	0.35	-1.6
COc1ccc(NC(=O)c2cccc(S(=O)(=O)N3CCc4ccccc43)c2)cn1	0.77	0.1
C[C@H]1CCC(=O)N([C@H](CN=[N+]=[N-])Cc2ccccc2)CC1	0.33	-1.2
N#Cc1cnc(SCC(=O)c2ccccc2)nc1N	0.16	-0.19
CN1CCN(NC(=S)NC(C)(C)CC(C)(C)C)CC1	0.01	-0.51
O=C(N/N=C/c1ccoc1)c1ccc(Cl)cc1Cl	1.5	0.72
Cc1nc2scc(C)n2c(=O)c1S(=O)(=O)N1CCN(c2ccc([N+](=O)[O-])cc2)CC1	2.2	0.54
CCC1CCCCN1CCCNC(=O)CS(=O)(=O)Cc1nc(-c2cccc(OC)c2)oc1C (stereo unspecified)	0.11	0.94
O=C(Nc1ccccc1)C1CC(=O)N(c2ccc3c4c(cccc24)CC3)C1 (stereo unspecified)	0.19	1.7
N#CCc1c(C#N)c(N)nc(N2CCCC(CO)C2)c1C#N (stereo unspecified)	1.3	2.8
COc1ccc(S(=O)(=O)N2CCC(C(=O)NCCN3CCOCC3)CC2)cc1OC	0.04	-0.75
COc1cc(-c2cc(N3C(=O)Nc4ccccc4N3O)n[nH]2)cc(OC)c1OC	0.02	3.2
CC[N+](C)(C)Cc1ccccc1Br	0.03	-0.06
CN(C)CCN(Cc1ccccc1)c1ccccn1	1.5	0.73
CN(CC(=O)NCc1cccc(F)c1)C(=O)c1ccco1	0.78	-0.84
Cc1cccc(N(CC(=O)NCc2ccco2)C(=O)CCC(=O)Nc2nccs2)c1	0.49	-0.64
O=C(OC[C@@H]1CCCN2CCCC[C@H]12)c1cc2ccccc2oc1=O	1.4	1.1
CCOC(=O)c1c(C)[nH]c(C=Nc2ccc(OC)cc2)c1O	0.79	0.1
CCOC(=O)C1CCCN(S(=O)(=O)c2ccccc2)C1 (stereo unspecified)	0.39	0.54
Cn1c(=O)c(=O)n(C)c2cc(S(=O)(=O)CCC(=O)NCc3ccccc3)ccc21	1.8	0.03
CCOC(=O)c1cc(NC(=O)N(C(C)C)C(C)C)c(C)nc1C	0.41	-0.38
NS(=O)(=O)c1cccc(NC(=O)c2ccc3nc[nH]c3c2)c1	0.5	1.1
Cc1noc(C)c1S(=O)(=O)N1CCC(C(=O)N(C)Cc2ccccc2)CC1	2	-0.82
CCC1=C2CC[C@H]3C(=O)N(CC)C(=O)[C@H]3[C@H]2[C@@]2(Cc3ccccc3)C(=O)N(Cc3ccccc3)C(=O)N2C1=O	0.41	-0.6
COc1nc(N=C(N)N)nc2ccc(C)cc12	0.44	0.97
CCCSc1nsc(NC(=O)CCC)n1	0.88	2.3
COc1cccc(S(=O)(=O)NCC(=O)N2CCCC2)c1	1.9	1
CC1CCN(c2nc3ccc(C(=O)N4CCN(Cc5ccccc5)CC4)cc3s2)CC1	0.22	-0.13
COc1ccc(C(C)=O)cc1CSc1nnc2c(Cl)cc(Cl)cn12	0.07	-1.5
CS(=O)(=O)c1ccc2nc(NC(=O)c3cccc(Cl)c3)sc2c1	2.1	-0.25
COCCNC(=S)Nc1ccc(S(=O)(=O)Nc2cnc3ccccc3n2)cc1	0.04	-0.67
O=C(NCc1ccccn1)c1ccco1	1.1	1.2
COc1ccc(/C=C/C(=O)OCCNC(=O)c2ccncc2)cc1OC	0.84	-0.48
O=C(N/N=C/C=C/c1ccco1)c1cccc([N+](=O)[O-])c1	0.04	-0.58
COc1cc(/C=N/NC(=O)C(=O)NCc2ccco2)cc(Cl)c1O	0.82	-0.77
O=C(CSc1ccc(F)cc1)Nc1nnc(-c2ccco2)o1	1.8	1.9
O=C(Nc1ccc(S(=O)(=O)Nc2nccs2)cc1)c1nn(-c2ccc(F)cc2)ccc1=O	0.63	1.2

# A portion of the library. The share of hits here may be higher or lower than overall.
